Screening data as filed in PubChem.
NPYLR7 ag: agonists of mosquito NPYLR7 receptor, primary screen, cell-based, Aedes aegypti, calcium fluorescence, mosquito biting behavior; activation, % at 10 µM; Aedes aegypti neuropeptide Y-like receptor 7 (NPYLR7); AID 1259423, 2018; hit rate 0.15% among 270,000; HEK293T NPYLR7/Galpha15, GCaMP6s calcium fluorescence; in the data active = activation above about 40%;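 note: 0% = vehicle and 100% = reference agonist at the receptor; some compounds past the cut are filed as inactive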
NPYLR7 ag max-min: recorded beside NPYLR7 ag, whose call it bears; activation, %; measured here: Max-Min RFU normalised activation; some inactives read as strong as hits;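 span of the calcium signal over five minutes; 0% = vehicle and 100% = native peptide agonist; compound fluorescence can raise it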
An asterisk follows results filed as active. A portion of the library. The share of hits here may be higher or lower than overall.

SMILES | NPYLR7 ag | NPYLR7 ag max-min
O=C(C1C[C@H]1c1ccccc1)N(Cc1cccc(OS(=O)(=O)c2ccc(F)cc2)c1)Cc1ccco1 (some centres undefined) | -15 | -9
Cc1ccc(NC2CCCN(C(=O)c3cc4ccccc4cn3)C2)cc1C (centres undefined) | 0 | 0
COC1CCN(C(=O)c2ccccc2NCc2cccnc2)CC1 | 4 | 0
CCn1c(C)c(C(=O)CN(CCN2CCOCC2)S(=O)(=O)c2c(C)cc(C)cc2C)c(C)c1C(=O)OC | -4 | -1
CCOC(=O)CCC(=O)Nc1nnc(SCc2ccccc2C(F)(F)F)s1 | 5 | 4
Cc1cc(C(=O)CN2C(=O)C(=O)N(CCc3cccs3)C2=O)c(C)n1C1CC1 | 3 | 1
CC1=C(C(=O)Nc2ccccc2)C(c2cccnc2)C(C(=O)Nc2ccccc2)=C(C)N1 | 9 | 5
COc1ccccc1N1C(=O)NC(=O)/C(=C/c2ccc(N(C)C)cc2)C1=O | 0 | -3
COc1ccc(-c2nc(CN(Cc3ccccc3)C[C@@H]3CCC(=O)N3)c(C)o2)c(OC)c1C | -8 | -16
Cc1cc(C)n(C(C[N+](=O)[O-])c2cccc(Br)c2)n1 (centres undefined) | -1 | -6
CC1CC(C)CN(S(=O)(=O)N2CCN(C3=NCC(C)(C)S3)CC2)C1 (centres undefined) | -2 | -4
Cc1ccccc1NCc1nc[nH]c1C | 21 | 9
COc1ccc(CCNC(=O)CN2CC3=C(C2=O)C(c2ccccc2OC)NC(=O)N3C)cc1OC (centres undefined) | 1 | 7
Cc1ccc(-n2c(CNC(=O)Nc3ccc(Br)cc3)nnc2SCc2ccc(F)cc2)cc1 | 20 | 19
O=C(NCC[C@@H]1C[C@@H]2C=C[C@H]1C2)c1ccc(CSc2ncccn2)o1 | 14 | 3
Cc1ccc2c(c1)C(c1ccccc1)N(C(=O)c1ccccc1[N+](=O)[O-])CC(=O)N2 (centres undefined) | -3 | -4
Cc1ccc(Cc2nsc(N3CCCN(S(=O)(=O)c4ccc(Br)cc4)CC3)n2)cc1 | -5 | -11
CC(=O)c1ccc(N2CCOCC2)c(-c2ccc(S(C)(=O)=O)cc2)c1 | 7 | 6
CC(C)C(=O)N1CCC(n2c(=O)oc3ccc(F)cc32)CC1 | 2 | -2
c1ccc(-c2cnc3n2CCC3)cc1 | 0 | -5
Cc1ccc(Cc2nc(N3CCCN(C(=O)c4ccc(F)cc4)CC3)c3c(-c4cccnc4)noc3n2)cc1 | 12 | 1
O=C(CCc1nc2ccccc2c(=O)[nH]1)NCCc1cccc(Cl)c1 | 9 | 8
CCc1cc(N2CCN(Cc3ccc(S(C)(=O)=O)cc3)CC2)ncn1 | 10 | 7
CCOc1ccc(NC(=O)N2CCN(C(=O)CN3CCc4sccc4C3c3cccc(F)c3)CC2)cc1 (centres undefined) | 16 | 6
CCOC(=O)c1ccc(N=C2SC(C(=O)Nc3ccccc3)CC(=O)N2C)cc1 (centres undefined) | 3 | 2
New compounds follow
SMILES | NPYLR7 ag | NPYLR7 ag max-min
CC(SC(=S)N1CCCC1)c1nc(C2CC2)no1 (centres undefined) | 1 | 1
Cc1ccccc1CC(=O)N1CCC(NC(=O)c2ccc(F)cc2)CC1 | -2 | -4
CCOc1ccc(C=CC(=O)c2ccc(I)cc2)cc1OC | -1 | -7
O=C1CCC(C(=O)N2CCC(Cn3cccn3)CC2)CN1CCCc1ccccc1 (centres undefined) | 2 | -3
CCc1nc(Cn2ccnc2-c2cccc3nonc23)no1 | 5 | 3
CC(C)(C)NC(=O)CC(c1ccccc1)c1cc(Cl)ccc1O (centres undefined) | 13 | 12
CC1C(=O)N(c2ccc3c(c2)OCO3)CCN1C(=O)c1ccc(Cl)cc1Cl (centres undefined) | 7 | 7
O=C(NCc1nnnn1-c1ccc(Cl)cc1)Nc1cccs1 | -9 | -8
Cc1ccccc1C(=O)Nc1nnc(-c2cc(C)n(C)n2)o1 | -7 | -15
Cc1cc(N2CCOC(C(F)(F)F)C2)nc2ccccc12 (centres undefined) | 3 | 1
O=c1c(N=Nc2cccc([N+](=O)[O-])c2)c(-c2ccccc2)[nH]n1-c1ccccc1 | -5 | -13
COc1ccccc1C(=O)N[C@H](C(=O)N1CCc2ccccc2C1)C(C)C | 12 | 8
CCn1cncc1S(=O)(=O)NCCNC(=O)c1ccccc1 | 2 | 0
CCCCc1ccc(-n2nnc(C(=O)N(C)C3CCS(=O)(=O)C3)c2C)cc1 (centres undefined) | 3 | 6
Cc1cc(C(=O)N(CCCN(C)C)c2nc3ccccc3s2)no1 | 7 | 3
Cc1cc(C(=O)N(Cc2ccco2)c2nc3ccc(Cl)cc3s2)on1 | 3 | 3
CC(C)=CC(=O)N1CCN(c2nccc(-c3ccc(C(C)(C)C)cc3)n2)CC1 | 32 | 21
CC(C)=CCC/C(C)=C/CC/C(C)=C/CO | -11 | -15
Cc1cccc(NC(=O)Cn2c(O)c(N=Nc3ccccc3[N+](=O)[O-])c3ccccc32)c1 | 5 | -4
Cc1nc(NCc2ccc(O)cc2)c2c(CC(C)C)csc2n1 | 18 | 14
O=C(CNC(=O)c1ccc2nc(-n3cccc3)sc2c1)NCCO | 0 | -1
O=C(CCn1cncn1)N1CCC2(CCCN(Cc3ccccc3F)C2)C1 (centres undefined) | 3 | 1
COc1ccc(S(=O)(=O)CCCC(=O)N(CCN(C)C)c2nc3c(F)cccc3s2)cc1 | 19 | 17
CN(C)S(=O)(=O)c1cccc(S(=O)(=O)Nc2ccc(Cl)c(C#N)c2)c1 | -3 | -4
c1ccc2sc(CN3CCCCC3c3nc4ccccc4s3)nc2c1 (centres undefined) | 9 | 13

22 consecutive compounds already listed:
SMILES | NPYLR7 ag | NPYLR7 ag max-min
Cc1ccccc1CC(=O)N1CCC(NC(=O)c2ccc(F)cc2)CC1 | -2 | -4
CCOc1ccc(C=CC(=O)c2ccc(I)cc2)cc1OC | -1 | -7
O=C1CCC(C(=O)N2CCC(Cn3cccn3)CC2)CN1CCCc1ccccc1 (centres undefined) | 2 | -3
CCc1nc(Cn2ccnc2-c2cccc3nonc23)no1 | 5 | 3
CC(C)(C)NC(=O)CC(c1ccccc1)c1cc(Cl)ccc1O (centres undefined) | 13 | 12
CC1C(=O)N(c2ccc3c(c2)OCO3)CCN1C(=O)c1ccc(Cl)cc1Cl (centres undefined) | 7 | 7
O=C(NCc1nnnn1-c1ccc(Cl)cc1)Nc1cccs1 | -9 | -8
Cc1ccccc1C(=O)Nc1nnc(-c2cc(C)n(C)n2)o1 | -7 | -15
Cc1cc(N2CCOC(C(F)(F)F)C2)nc2ccccc12 (centres undefined) | 3 | 1
O=c1c(N=Nc2cccc([N+](=O)[O-])c2)c(-c2ccccc2)[nH]n1-c1ccccc1 | -5 | -13
COc1ccccc1C(=O)N[C@H](C(=O)N1CCc2ccccc2C1)C(C)C | 12 | 8
CCn1cncc1S(=O)(=O)NCCNC(=O)c1ccccc1 | 2 | 0
CCCCc1ccc(-n2nnc(C(=O)N(C)C3CCS(=O)(=O)C3)c2C)cc1 (centres undefined) | 3 | 6
Cc1cc(C(=O)N(CCCN(C)C)c2nc3ccccc3s2)no1 | 7 | 3
Cc1cc(C(=O)N(Cc2ccco2)c2nc3ccc(Cl)cc3s2)on1 | 3 | 3
CC(C)=CC(=O)N1CCN(c2nccc(-c3ccc(C(C)(C)C)cc3)n2)CC1 | 32 | 21
CC(C)=CCC/C(C)=C/CC/C(C)=C/CO | -11 | -15
Cc1cccc(NC(=O)Cn2c(O)c(N=Nc3ccccc3[N+](=O)[O-])c3ccccc32)c1 | 5 | -4
Cc1nc(NCc2ccc(O)cc2)c2c(CC(C)C)csc2n1 | 18 | 14
O=C(CNC(=O)c1ccc2nc(-n3cccc3)sc2c1)NCCO | 0 | -1
O=C(CCn1cncn1)N1CCC2(CCCN(Cc3ccccc3F)C2)C1 (centres undefined) | 3 | 1
COc1ccc(S(=O)(=O)CCCC(=O)N(CCN(C)C)c2nc3c(F)cccc3s2)cc1 | 19 | 17

New compounds follow
SMILES | NPYLR7 ag | NPYLR7 ag max-min
COc1cc(COC(=O)CSC)ccc1C | -1 | -7
CCCS(=O)(=O)Nc1ccc(N(C)C)c(CN(C(=O)CC(C)(C)C)C2CCCCC2)c1 | 15 | 28
O=C(NC1CC1)c1ccc(NC(=O)c2ccc(F)cc2F)cc1 | 1 | 3
CCOc1ccc(CN(C(=O)c2ccc(C3CCCO3)s2)C2CC2)cc1 (centres undefined) | 7 | 4
CCOC(=O)c1nn(-c2ccc(F)cc2)c(=O)c2c(NC(C)=O)scc12 | 5 | 3
O=C(NCC(=O)N1CCC(C(=O)c2ccccc2)CC1)c1ccccc1Cl | 0 | 5
O=C(NC1CC1)C1CN(Cc2cnc(NCc3ccccc3)nc2)CCN1 (centres undefined) | 8 | 0
CN1CCN(n2c3c(c(SCC(=O)Nc4cccc([N+](=O)[O-])c4)nc2=O)CCCC3)CC1 | -3 | -11
CS(=O)(=O)c1cccc(C(=O)Nc2cc(F)cc(N3CCCC3)c2)c1 | 2 | 9
O=C(CN1CCOc2ccccc2C1)N1Cc2cnn(CCO)c2C1 | 6 | -9
COc1ccc(C(=O)N2CCN(c3cc(Cl)nc(SCC(=O)N(C)CCc4ccc(OC)c(OC)c4)n3)CC2C)cc1 (centres undefined) | 17 | 12
Cc1ccc(Nc2nc(NCCCN(C)C)nc3nccnc23)cc1 | 2 | 8
COc1cccc(Nc2nc(C(N)Cc3ccc(F)cc3)cs2)n1 (centres undefined) | -5 | -9
CCN1C(=O)NC(c2ccsc2)C2=C1CN(CC(=O)NCCCOC)C2=O (centres undefined) | -1 | 2
c1c2c(cc3[nH]c(C4CCCCC4)nc13)OCCO2 | 3 | 2
COc1cccc(Nc2cc(C)nc3c(-c4ccc(C)cc4)c(C)nn23)c1 | -6 | -9
COCC(=O)N1CCC2(CC1)C(=O)N(CC(=O)NCCc1ccc(Cl)cc1Cl)CN2c1ccccc1 | 8 | 12
COC(=O)c1ccc(S(=O)(=O)NCCN2CCOCC2)cc1 | 6 | 7
COc1ccc(C2c3[nH]c4ccccc4c3CCN2Cc2ncc(C)[nH]2)cc1C (centres undefined) | 4 | 3
C=CCn1c(N2CCN(Cc3ccccc3)CC2)nc2c1c(=O)n(C)c(=O)n2C | -20 | -19
Cc1ccc(/C=N\Nc2nc(N3CCOCC3)nc(N3CCOCC3)n2)o1 | -11 | -18
O=C(Cn1c(O)c(N=Nc2ccccc2)c2ccccc21)Nc1ccccc1 | -5 | -7
Cc1ccc(C(=O)NC2CCCc3nc(-c4cccnc4)ncc32)s1 (centres undefined) | 21 | 7
CC1(C)Cc2ccccc2CN1C(=O)c1cn(CC2CCCNC2)nn1 (centres undefined) | 16 | 13
COc1ccc(F)c(CN2CCCC(O)(CN(C)Cc3ccsc3)C2=O)c1 (centres undefined) | 30 | 15
Further entries follow:
SMILES | NPYLR7 ag | NPYLR7 ag max-min
CCc1nc(C)sc1C(=O)N(C)Cc1noc(C2CCC2)n1 | 2 | 1
C=c1ccc2cc(=C3N=C(c4cccnc4)ON3)c(=O)[nH]c2c1 | -5 | -5
CCOC(=O)COC1CN(C(=O)c2ccccc2)CCC(=O)N(C)c2ccccc21 (centres undefined) | 4 | 10
Cc1sc2nc3n(c(=O)c2c1C)N=C(c1cccs1)CS3 | 5 | 7
COc1ccccc1NC(=O)CSc1nc2c(cnn2CCO)c(=O)[nH]1 | 5 | 5
CCOC(=O)CCc1c(C)[nH]n(-c2nc3ccccc3[nH]2)c1=O | -15 | -18
CN(C1CCCCC1)S(=O)(=O)c1ccc2c(c1)OCCCO2 | 0 | 6
COc1ccccc1-c1onc(C)c1C(=O)N1CCC(Cc2ccccc2)CC1 | 9 | 15
Cc1ccc2nc(C)c(NC(=O)c3ccc(C)c(C)c3)c(=O)n2c1 | 6 | 2
Cc1ccc(NC(=O)NNc2nc(Nc3ccccc3)nc(N3CCCCC3)n2)cc1 | -3 | -6
O=C1C(=Cc2cccc([N+](=O)[O-])c2)C(c2ccccc2)Oc2ccccc21 (centres undefined) | 1 | -1
CN(C)c1ccc(-c2nc(C(Cl)(Cl)Cl)nc(C(Cl)(Cl)Cl)n2)cc1 | -8 | -11
COc1ccccc1-c1cc(C(=O)N2CCN(c3cccc(Cl)c3)CC2)n2nc(-c3ccccc3)cc2n1 | 12 | 13
Fc1ccc(Br)cc1C=Nn1c(-c2ccccc2)n[nH]c1=S | -2 | -2
CCCc1c(C(=O)NCC2CCCO2)cnn1-c1cccc(Cl)c1 (centres undefined) | 21 | 29
Cc1ccc(-n2c(SCc3cccc(Cl)c3)nnc2-c2cccc(C)c2)cc1 | 20 | 27
O=C(NCCCC(=O)N1CCN(Cc2ccc(-c3noc(-c4cccs4)n3)cc2)CC1)OCc1ccccc1 | 9 | 7
c1ccc(CN(Cc2cccnc2)CC2CCCN(C3CCCCC3)C2)cc1 (centres undefined) | 10 | 7
c1ccc(CN2CCC3(CC2)NCCc2[nH]cnc23)cc1 | -9 | -14
CCCS(=O)(=O)Nc1ccc(N(C)C)c(CN(Cc2ccc(F)cc2)C(=O)NC(C)(C)C)c1 | 2 | 17
COc1cc(=O)n(-c2ccccc2)nc1C(=O)N1CCN(c2ccccc2F)CC1 | 4 | 1
Cc1ccc(CNC(=O)CSc2[nH]c(=O)ncc2C)cc1 | 3 | 2
Cc1cc(C)nc(-n2nc(C(C)(C)C)cc2OCC(=O)N2CCc3ccccc32)n1 | 1 | 12
Cc1ccc2c(C)nc(Nc3nc(C)c(C)c(=O)[nH]3)nc2c1 | -3 | -4
CC1(C)CNC(=O)c2nc(-c3ccncc3)[nH]c2C1 | 24 | 11
O=c1oc2cc(O)ccc2cc1-c1nc2ccccc2s1 | 140* | 127*
COc1ccc(C2=NN3C(C2)c2ccccc2OC3c2ccc(OC)c(OC)c2)cc1OC (centres undefined) | 0 | -1
COc1ccc(NC(=O)C2(N3Cc4ccc(-c5ccnn5C)nc4C3=O)CC2)cn1 | -14 | -15
